NPYLR7 ag: agonists of mosquito NPYLR7 receptor, primary screen, cell-based, Aedes aegypti, calcium fluorescence, mosquito biting behavior | Aedes aegypti neuropeptide Y-like receptor 7 (NPYLR7) | HEK293T NPYLR7/Galpha15, GCaMP6s calcium fluorescence | activation, % at 10 µM | hit rate 0.15% among 270,000; in the data active means activation above about 40%;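 further: 0% = vehicle and 100% = reference agonist at the receptor; some compounds past the cut are filed as inactive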
NPYLR7 ag max-min: further read-out of NPYLR7 ag, marked with its call; activation, %; measured here: Max-Min RFU normalised activation; some inactives read as strong as hits;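 span of the calcium signal over five minutes; 0% = vehicle and 100% = native peptide agonist; compound fluorescence can raise it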
Starred values were filed as active, the others as inactive; & = joins results of further samples. The list is partial; count on the stated rates, not on these rows.

SMILES	NPYLR7 ag	NPYLR7 ag max-min
O=C(NCC(F)(F)F)c1ccc2sc([C@H]3C[C@H](O)[C@@H](CO)O3)nc2c1	1.8	-0.1
COC(=O)c1nnn(-c2cccc(C(F)(F)F)c2)c1N	4.7	0.2
COc1cccc(CCNC(=O)CC2C(=O)NCCN2Cc2ccc(C)o2)c1 (stereo not given)	12.7	5.6
C=CCNC(CC(=O)Nc1cccnc1)C(=O)O (stereo not given)	-0.9	-1.0
COc1ccc(CCS(=O)(=O)Nc2ccc3c(c2)CCC(=O)N3Cc2ccccc2)cc1	13.5	7.5
CCOC(=NC(=O)c1ccc(Cl)c(Cl)c1)N(C)C1CCN(C)CC1	-0.4	-8.2
CC(=O)Oc1ccccc1Cn1c(C)c(C(=O)NC2CC2)sc1=O	-7.8	-2.4
Cc1ccc2c(C(=O)N3[C@@H]4CC[C@H]3CC(O)C4)cc(C)nc2c1 (stereo not given in full)	14.4	9.1
O=C1CSC(c2ccc(F)c(F)c2)N1c1ccc(O)cc1 (stereo not given)	-4.1	-8.8
O=C(Nc1ncccc1O)c1nc(-c2ccccc2)n2c1CCCCC2	11.4	9.7
c1ccc(CCC2CCCCN2Cc2nc(-c3cnccn3)no2)nc1 (stereo not given)	4.1	4.8
O=C(C1CCCC1)N(Cc1nccn1Cc1ccccc1C(F)(F)F)CC1CCCO1 (stereo not given)	4.5	12.0
COc1ccc(CN(C)c2c(C)nc3c(OCc4ccc(C(F)(F)F)cc4)cccn23)cc1	10.9	2.3
O=C(CSc1ccccc1F)NNS(=O)(=O)c1cccc(F)c1	-6.6	-9.4
Cn1ccnc1C(=O)C1CCCN(C(=O)c2cn(CCC3CCCCC3)nn2)C1 (stereo not given)	7.4	2.5
Nc1ccc(S(=O)(=O)c2ccc(Cl)cc2)cc1	9.6	0.8
CN1CCN(C(=O)c2cc3n(n2)CCN(Cc2nccn2C)C3)CC1	1.3	9.4
O=C(O)c1ccc2c(c1)C(=O)N(c1ccc(-c3nc4ccccc4c(=O)o3)cc1)C2=O	-6.0	-11.8
Cc1cccn2c(=O)nc(SCc3cccc(Cl)c3)nc12	8.4	7.3
COCCn1cc(/C=C2\C(=O)c3ccccc3SC2C)cn1 (stereo not given)	4.1	1.4
O=C(CSc1nnnn1C1CCCC1)c1cc2ccccc2o1	-6.1	-3.5
O=C1NC(=O)c2ccc(N3CCCCC3)c3cccc1c23	16.8	6.6
Cc1ccccc1CC1(CO)CCCN(C(=O)CN2CCCC2=O)C1 (stereo not given)	-5.7	-8.9
COc1ccc(-c2noc(-c3ccc(F)cc3)n2)cc1OC	2.6	1.8
CC(=O)Nc1ccc(NC(=O)CSc2ncc(CO)n2CC(=O)NC(C)C)cc1	1.3	-1.3
COc1ccc2c(c1)C1(SC(C)(C)CN1C(=O)Nc1ccc(Cl)cc1)C(=O)N2 (stereo not given)	5.3	8.5
CCCOc1ccc(C=C2SC(=S)NC2=O)cc1	24.2	19.1
O=C1Nc2ccccc2/C1=C/c1ccc([N+](=O)[O-])cc1O	-6.8	-14.1
CCn1c(C2CCN(Cc3cc(-c4ccccc4)no3)CC2)nn(C)c1=O	1.8	0.4
S=C(Nc1ccccc1)N1CCOC(c2ccc(Br)cc2)N1 (stereo not given)	-0.1	-1.4
CC#CCN1CCc2nc3ccccc3c(C(=O)NCCc3ccc(O)cc3)c2C1	-0.4	6.7
O=C(C1CCC(CNc2c(N3CCCCC3)c(=O)c2=O)CC1)N1CCCCCC1 (stereo not given)	-5.2	-2.5
COc1cccc(CN2CCN(Cc3c(C)nn(C)c3Cl)CC2CCO)c1 (stereo not given)	4.7	5.3
CCOC(=O)C1CCCN(C(=O)C2COC3(CCCCC3)N2C(=O)c2cc(F)cc(F)c2)C1 (stereo not given)	-17.2	-1.7
COc1ccccc1-c1noc(CNc2ccc(N3CCCC3=O)c(C)c2)n1	6.8	1.4
CCCCCCCCCC(=O)Nc1ccc(N2CCCC2)c(C(=O)N(CC)CC)c1	-6.2	-1.9
O=S(=O)(O)CCCN1CCN(S(=O)(=O)c2ccc3c(c2)OCCO3)CC1	0.0	-2.8
Nc1[nH]nc2nc(N3CCCC3)nc(-c3ccccc3)c12	-0.8	2.2
O=C(OC12CC3CC(CC(C3)C1)C2)C12CC3CC(CC(C3)C1)C2	14.2	10.8
CCN(Cc1ccccc1)C(=O)CCC1(Cc2ccc3ccccc3c2)CCC(=O)N1 (stereo not given)	-0.2	-1.1

A draw from above in order of count of non-hydrogen atoms, low to high:
SMILES	NPYLR7 ag	NPYLR7 ag max-min
O=S(=O)(O)CCCN1CCN(S(=O)(=O)c2ccc3c(c2)OCCO3)CC1	0.0	-2.8
O=C(C1CCC(CNc2c(N3CCCCC3)c(=O)c2=O)CC1)N1CCCCCC1 (stereo not given)	-5.2	-2.5
CCOC(=O)C1CCCN(C(=O)C2COC3(CCCCC3)N2C(=O)c2cc(F)cc(F)c2)C1 (stereo not given)	-17.2	-1.7

As a working copy, some entries already given:
SMILES	NPYLR7 ag	NPYLR7 ag max-min
CC#CCN1CCc2nc3ccccc3c(C(=O)NCCc3ccc(O)cc3)c2C1	-0.4	6.7
O=C(C1CCC(CNc2c(N3CCCCC3)c(=O)c2=O)CC1)N1CCCCCC1 (stereo not given)	-5.2	-2.5
COc1cccc(CN2CCN(Cc3c(C)nn(C)c3Cl)CC2CCO)c1 (stereo not given)	4.7	5.3
CCOC(=O)C1CCCN(C(=O)C2COC3(CCCCC3)N2C(=O)c2cc(F)cc(F)c2)C1 (stereo not given)	-17.2	-1.7

The results go on:
SMILES	NPYLR7 ag	NPYLR7 ag max-min
CC(C)C(NC(=O)C1CCCN(c2ncccn2)C1)c1ccc2c(c1)OCCO2 (stereo not given)	11.7	5.4
O=C(NCC12CC3CC(CC(C3)C1)C2)c1cccc2ncccc12	2.1	2.3
CC(=O)c1cccc(CN2CCCC(N(C)CCc3ccccc3)C2)c1 (stereo not given)	9.5	0.1
Cc1ccc(C2c3c(oc4cc(C)c(Cl)cc4c3=O)C(=O)N2C)cc1 (stereo not given)	6.4	1.6
CCCCn1c2ccccc2c2n[nH]c(=S)nc21	-0.6	-1.5
O=C(CN1CCN(S(=O)(=O)c2ccc(Cl)cc2)CC1)Nc1cccc(Br)c1	-1.4	-4.8
CCOC(=O)C1C(=O)C=C(c2ccc(C)cc2)CC1c1cccc(F)c1 (stereo not given)	2.2	6.1
CC1(C)CC(=O)C2C(=Nc3ccccc3NC2c2ccc(F)cc2)C1 (stereo not given)	0.2	-1.2
Cc1cc(C(=O)N(CCCN(C)C)c2nc3ccc(F)cc3s2)no1	0.9	-0.3
COC(C(=O)N1CCN(Cc2ccc(-c3noc(CC(C)C)n3)cc2)CC1)c1ccccc1 (stereo not given)	5.7	0.4
c1cc(CN2CCOC3(CNCCOC3)C2)n(-c2nccs2)c1 (stereo not given)	3.7	1.0
CCCCc1nc(N2CCCN(C(=O)Nc3ccccc3F)CC2)c2c(-c3ccc4ccccc4c3)noc2n1	34.2	17.3
CC(NC(=O)c1ccncc1F)c1nnc2n1CCNCC2 (stereo not given)	9.0	7.5
COc1cccc(CN2CCNC(=O)CC2c2nccs2)c1 (stereo not given)	6.9	6.4
COCc1c(Br)c(C)nc(OCC(=O)N/N=C\c2cc(I)c(OCc3ccc(Cl)cc3Cl)c(OC)c2)c1C#N	5.5	5.9
Cn1c(=O)[nH]c(=O)c2nc(-c3ccccc3)c(-c3ccccc3)nc21	6.4	4.9
OCC1(Cc2ccc(F)cc2)CCCN(c2ncnc3nc[nH]c23)C1 (stereo not given)	-3.5	-5.3
Cc1cc(C)n2nc(C(=O)N3CCCC(O)(CO)C3)cc2n1 (stereo not given)	2.6	-2.1
Cc1cc(Oc2cc(N3CCCC3)ncn2)ccc1Cl	-4.8	4.9
Cc1c(C(=O)NCCCN2CCCCC2C)cnc2c(-c3ccccc3F)cnn12 (stereo not given)	11.5	-2.3
CCNC1CCSc2ccc(Br)cc21 (stereo not given)	9.3	5.3
COc1ccccc1/C=N\Nc1nc(-c2ccccc2)c2cc(C)ccc2n1	-6.9	-9.0
COc1ccc(C(C)=O)cc1N1C(=O)C2C3C=CC(C3=C(C)C)C2C1=O (stereo not given)	-2.3	-3.0
CCc1c(C(=O)N2CCCCC2)c(CC(C)C)nn1C	27.4	34.8
COc1cccc(C(CN2CCN(S(=O)(=O)c3cccc(C(F)(F)F)c3)CC2)OCc2ccc(C#N)cc2)c1 (stereo not given)	25.6	12.2
CCOC(=O)N1CCN(C2CCCN(C(=O)CSc3nc(C)cs3)C2)CC1 (stereo not given)	4.7&3.0	4.5&0.0
COc1ccccc1N1CCN(C2CCCN(Cc3cccn3-c3cccnc3)C2)CC1 (stereo not given)	4.8	0.6
COCCN(CC(=O)N(CCc1ccc(OC)c(OC)c1)Cc1ccco1)S(=O)(=O)c1ccc([N+](=O)[O-])cc1	2.8	13.9
CC(=O)c1ccc(OS(=O)(=O)c2cn(C)c(=O)n(C)c2=O)cc1	-0.1	-1.0
Fc1ccc(Cn2nnc3c(SCc4cccc(F)c4)ncnc32)cc1	15.7	17.7
O=C(CSc1nc2ccccc2s1)NN=C1CCCCC1	-10.0	-12.4
O=C(CN1CSCC1=O)Nc1nc2ccc3ccccc3c2s1	-1.3	-2.4
Cc1c(C(=O)NCCC#N)sc(=O)n1Cc1cccc(F)c1	10.5	3.3
COc1ccccc1OC(C)(C)C(=O)N1CCN(C)C(C(=O)O)C1 (stereo not given)	0.5&-0.3	-1.2&-1.1
Cc1ccc(CN2CCN(C(=O)Cn3cccnc3=O)C(C)C2=O)cc1 (stereo not given)	8.6	0.9
O=C(Nc1cccnc1Cl)c1cc2nc(-c3ccc(F)cc3)cc(C(F)(F)F)n2n1	-7.5	-13.3
COC(=O)N1CCCC(C(=O)Nc2ccc(N3CCCCC3)nc2)C1 (stereo not given)	-17.9	-24.6
C=CCC(=O)N(C)CC1(CO)CCCC1	-2.3	-3.3
COc1cccc(C2NC(=O)CN2Cc2ccc(Br)cc2)c1O (stereo not given)	7.1	4.5
COc1ccc2c(c1)OC(C)CN(CC(C)Cc1ccc3c(c1)OCO3)C2 (stereo not given)	5.8	4.1
COc1ccccc1NS(=O)(=O)c1ccc(Oc2ccccc2OC)cc1	-1.6	1.4
CCn1ccnc1N1CCN(C(C)=O)CC1	2.2	8.4
COc1cc(-c2nc(C=Nc3ccccc3Br)c(O)o2)cc(OC)c1OC	-1.6	-7.7
CC1(C)CC(=O)C=C(NC2CC2)C1	-4.5	-8.1
COCCN(Cc1ccncc1)S(=O)(=O)c1cc(C)c(Cl)cc1Cl	-1.5	-2.7
O=C(NCc1cccnc1)c1cc(NC(=O)C23CC4CC(CC(C4)C2)C3)ccc1N1CCc2ccccc2C1	21.0	23.8
C=C(C)CN1CCN(c2c3c(c(C#N)c4nc5ccccc5n24)CCC3)CC1	4.0	0.0
Cc1cc(C)n(-c2ccc(N3CCN(S(=O)(=O)c4ccc(C(C)(C)C)cc4)CC3)nn2)n1	-3.6	-6.7
COc1cc2c(cc1-c1nccn1-c1ccccc1CCO)OCCCO2	30.6	16.7
C=CCn1c(C)csc1=Nc1ccc(Cl)cc1	-2.4	-3.2
Going on with the list.
SMILES	NPYLR7 ag	NPYLR7 ag max-min
COCCCN(Cc1ccc([N+](=O)[O-])cc1)Cc1cccn1Cc1ccc(F)cc1	19.8	32.0
Cc1ccc(C(=O)NCCC(=O)OC(C)C)c(C)c1	0.6	-4.7
CSc1ccc(-c2nc(CN3CCC(CN)C3)c(C)o2)cc1 (stereo not given)	-1.3	-6.9
Cc1ccc(-c2csc3nc(CN(CC(O)Cc4ccccc4)C4CCCCC4)[nH]c(=O)c23)cc1C (stereo not given)	7.4	12.0
COc1ccc(CCOc2nc(-c3ccccc3F)n(-c3ccc(NC(=O)C4CCC4)cc3)n2)cc1	4.7	4.8
NC(=O)c1ccc(C(=O)OCc2ccsc2)cn1	1.5	-2.3
CCn1c(=S)[nH]c2sc3c(c2c1=O)CCCCC3	-6.0	-10.0
CN(C)CCCNC(=O)C(C1CCCC1)N1CCN(C(=O)C2CCC2)CC1 (stereo not given)	-3.3	-2.3
CC(C)OC(=NS(=O)(=O)c1ccc(Br)cc1)c1ccccc1	-2.3	-10.6
CCCCCCNC(=O)c1csc(CN(C(=O)Nc2ccc(OC)cc2)C(C)C)n1	18.7	14.1

2 records picked at random from the list so far, as already listed:
SMILES	NPYLR7 ag	NPYLR7 ag max-min
COc1cc2c(cc1-c1nccn1-c1ccccc1CCO)OCCCO2	30.6	16.7
CCCCn1c2ccccc2c2n[nH]c(=S)nc21	-0.6	-1.5

Continued:
SMILES	NPYLR7 ag	NPYLR7 ag max-min
COCCn1cc(C(=O)Nc2nccs2)c2nn(-c3ccccc3)c(=O)c-2c1	0.1	-1.3
COc1cc(N=c2scc(-c3ccccc3)n2Cc2cccc(OC(F)(F)F)c2)cc(OC)c1	0.8	-3.2
NC(=O)C(NC(=O)C1CCCc2ccccc21)c1ccccc1F (stereo not given)	-32.1	-32.6
Cc1ccc(N2C(=O)C3ON(c4ccccc4)C(c4ccco4)C3C2=O)cc1 (stereo not given)	23.5	10.3
Cc1csc(CNC(=O)NCc2cc(F)ccc2F)n1	20.4	7.9
CN(C(=O)c1cccs1)[C@H]1[C@H](O)C[C@@H]2C[C@H](c3ccccc3)OC[C@]21O	7.5	10.0
Cn1c(=NC(=O)C2CC(=O)N(c3ccc4c(c3)OCCO4)C2)sc2ccccc21 (stereo not given)	0.7	0.1
O=C(CSCc1ccc(Cl)cc1)N1CCS(=O)(=O)C2CCCCC21 (stereo not given)	0.7	-1.6
CCOC(=O)c1ccc2c(c1)nc(SCC(=O)NCC1CCCO1)n2CCOC (stereo not given)	0.6	-4.2
O=C(NCCn1cccn1)c1coc(COc2cccc(C(F)(F)F)c2)n1	0.8	-1.5
CC1CCN(C(=O)CSc2nc(=O)[nH]c3c2CCC3)CC1	-3.2	-7.4
Cc1cnc2c(S(=O)(=O)N(C)Cc3ccc(C(N)=O)cc3)cccc2c1	1.9	0.4
CC1CN(S(=O)(=O)N(CC2CC2)CC2CC2)C(C)CO1 (stereo not given)	2.6	1.6
CCCC(=O)Nc1cc(C)nn1-c1nc(-c2cccs2)cs1	-13.3	-18.3
O=C(COC1CCCCC1)NCCNc1nc2ccccc2s1	9.1	7.0
O=C(c1ccccc1NS(=O)(=O)c1ccccc1Br)N1CCCCC1	1.2	51.5
